Screening data (PubChem BioAssay)
MITF inhib: blocks MITF activity; TRPM1 promoter luciferase, luminescence, 24 h; inhibition, % (no concentration beside the values); actives 0.28% (n = 37,000); AID 2240;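 active means most replicates at 85% or more, or half of them and the mean; inconclusive means half reach 85% but not the mean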;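 further: human melanocyte line stably carrying TRPM1 promoter luciferase reporter; 0% = vehicle wells and 100% = a positive control; the first replicate is given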
YB-1 expr inh: YB-1 expression inhibition. U2OS, qRT-PCR YB-1 vs CDIP delta delta Cp, 16 h; active compounds read high; zero = DMSO, each unit about twofold. delta delta Cp (YB-1 minus CDIP) (test concentration not listed). actives 0.37% (n = 30,000). AID 434959;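 active means delta delta Cp rounded down to an integer at or above 3, about 3 SD of DMSO wells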;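 further: higher means less YB-1 transcript or more CDIP transcript relative to DMSO; stock transfer was 100 nL into about 100 µL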
Shh pathway inh: blocks Sonic Hedgehog signaling. Shh-LIGHT2 Gli-luciferase reporter, 30 h. inhibition, % (concentration not given with the values). actives 2.1% (n = 22,000). AID 2313;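 active means replicate mean of 65% or more; inconclusive means mean lower but half the replicates past it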;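 further: pathway switched on by Shh-conditioned medium diluted 1 in 25 in low serum; 100 nL library stock added to about 40 µL; 0% = median of neutral wells and 100% = positive control level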
PD-1 reverse act: reversal of PD-1 mediated T-cell inhibition; primary human CD4 T cells, PD-L1 beads, CellTiter-Glo 96 h; activation, % (test concentration not listed); 29,000 tested, under 10 active;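 active means replicate mean of 50% or more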;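 further: 0% = median vehicle wells and 100% = positive control; 100 nL library stock added to about 50 µL; numbers are from one replicate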
* hit, by the source's call; u = inconclusive; x = no result given.

SMILES	MITF inhib	YB-1 expr inh	Shh pathway inh	PD-1 reverse act
COC(=O)CSc1nnc(-c2cccs2)n1-c1ccc(Cl)cc1	-16.9	x	x	-0.5
Cc1cc(-c2ccc(Cl)cc2)nc(SCC(=O)Nc2ccccc2)n1	-6.8	x	x	0.6
C[C@@H]1CN([C@@H](C)CO)C(=O)c2cc(NC(=O)Nc3ccc(C(F)(F)F)cc3)ccc2O[C@@H]1CN(C)Cc1ccncc1	0.5	-0.0501	10.7	-0.6
CC(=O)c1ccc(NC(=O)CN(C)S(=O)(=O)c2ccc(C)cc2)cc1	-43.8	x	x	0.7
O=C(O)CCC(NC(=O)c1ccc(Cl)cc1)C(=O)O (configuration not stated)	-5.6	x	x	4.2
CC(Sc1nc(N2CCOCC2)c2c(c1C#N)CC(C)(C)OC2)C(=O)Nc1ccccc1 (configuration not stated)	-18.2	x	x	-5.2
CCc1cccc(CC)c1NC(=O)Cn1cnc2sc(C)c(C)c2c1=O	6.5	x	x	1.1
C=CCN1C(=O)/C(=C\c2ccccc2Cl)N=C1c1ccccc1	5.1	0.0701	-36.4	-9.2
COC(=O)c1ccccc1NC(=O)CN1CCN(C)CC1	-7.3	x	x	-2.2
CC1(C)CC[C@]2(C(=O)O)CC[C@]3(C)C(=CCC4[C@@]5(C)CC[C@H](OC6O[C@H](CO)[C@@H](O)[C@H](O[C@@H]7O[C@H](CO)[C@@H](O)[C@H](O)[C@H]7O)[C@H]6O)C(C)(C)C5CC[C@]43C)[C@@H]2C1 (some centres not stated)	72.3	-0.209	106.6*	-12.8
COc1ccc(NC(=O)Nc2cccc3c2O[C@H](CN(C)Cc2ccncc2)[C@H](C)CN([C@H](C)CO)C3=O)cc1	-6.0	-0.33	-35.1	-1.3
COc1ccc(S(=O)(=O)N(C)C[C@@H]2Oc3ccc(NC(=O)C4CC4)cc3C(=O)N([C@@H](C)CO)C[C@H]2C)cc1	2.1	0.0966	x	-1.7
C=C(C(=O)O)C1CCC2(C)CCC(=O)C(C)=C2C1 (configuration not stated)	-19.2	-0.0051	17.3	-0.8
Cc1cccc(C=Nc2c(C)n(C)n(-c3ccccc3)c2=O)c1	0.3	-0.439	u	3.1
O=S(CCSc1nc2ccccc2s1)Cc1ccc(Cl)cc1 (configuration not stated)	29.7	x	x	-1.3
C[C@H]1CN([C@@H](C)CO)C(=O)Cc2cc(NC(=O)Nc3ccc(F)cc3)ccc2O[C@H]1CN(C)C(=O)Nc1ccc2c(c1)OCO2	-4.5	0.11	-44.5	x
Cc1ccc(C(=O)OC[C@H]2O[C@H](c3nnc4ncccn34)C[C@@H]2OC(=O)c2ccc(C)cc2)cc1	8.5	-0.53	-19.3	-0.2
C=C1C(=O)O[C@H]2C1CCC(C)=C1C(=O)C=C(C)[C@@]12O (some centres not stated)	10.2	0.177	6.5	-4.5
C[C@H](CO)N1C[C@H](C)[C@H](CN(C)C(=O)Nc2ccc(F)cc2)Oc2c(NC(=O)Nc3ccc(C(F)(F)F)cc3)cccc2C1=O	26.1	0.637	-4.7	0.7
C[C@@H]1CN([C@H](C)CO)C(=O)c2cc(NC(=O)Cc3cn(C)c4ccccc34)ccc2O[C@H]1CN(C)Cc1ccc(-c2ccccc2)cc1	21.3	0.0955	x	-3.8
C[C@@H]1CN([C@@H](C)CO)C(=O)c2cc(NS(=O)(=O)c3cccs3)ccc2O[C@H]1CN(C)C(=O)Nc1cccc2ccccc12	2.1	0.113	x	-0.5
COC(=O)C1=C(C)NC2=C(C(=O)CC(c3ccccc3)C2)C1c1ccccc1OC(C)C (configuration not stated)	14.2	-0.153	x	-1.4
CC(C)NC(=O)N(C)C[C@@H]1Oc2ccc(NC(=O)CCCN(C)C)cc2C(=O)N([C@@H](C)CO)C[C@@H]1C	-1.6	-0.0241	4.3	0.8
Cc1ccc(S(=O)(=O)Nc2ccc3c(c2)C(=O)N([C@H](C)CO)C[C@H](C)[C@@H](CN(C)C(=O)Nc2ccc(C(F)(F)F)cc2)OCCCC[C@@H](C)O3)cc1	27.4	0.302	47.4	x
CNC[C@@H]1Oc2c(NC(=O)Nc3ccc(F)cc3)cccc2C(=O)N([C@H](C)CO)C[C@H]1C	-5.2	0.166	6.9	0.0

Complete entries, looked up by structure. Values in the order: MITF inhib | YB-1 expr inh | Shh pathway inh | PD-1 reverse act
COC(=O)CSc1nnc(-c2cccs2)n1-c1ccc(Cl)cc1 is entered as -16.9 | x | x | -0.5
C[C@@H]1CN([C@@H](C)CO)C(=O)c2cc(NS(=O)(=O)c3cccs3)ccc2O[C@H]1CN(C)C(=O)Nc1cccc2ccccc12 is entered as 2.1 | 0.113 | x | -0.5

New compounds follow
SMILES	MITF inhib	YB-1 expr inh	Shh pathway inh	PD-1 reverse act
CC(C)NC(=O)N(C)C[C@H]1Oc2ccc(NC(=O)Cc3cn(C)c4ccccc34)cc2CC(=O)N([C@@H](C)CO)C[C@H]1C	10.4	-0.0782	-4.5	x
C[C@@H]1CCCCO[C@@H](CN(C)S(=O)(=O)c2ccc(F)cc2)[C@@H](C)CN([C@H](C)CO)C(=O)c2cc(NC(=O)c3ccncc3)ccc2O1	-5.8	-0.365	-0.4	0.1
C[C@H]1CN([C@@H](C)CO)C(=O)c2cc(NC(=O)Nc3ccc(F)cc3)ccc2O[C@H]1CN(C)Cc1ccccc1	-4.0	0.132	x	x
C[C@@H]1CN([C@@H](C)CO)C(=O)c2cccc(NC(=O)Nc3ccc(F)cc3)c2O[C@@H]1CN(C)C(=O)Nc1ccccc1	-17.6	2.46	-26.6	1.2
COc1ccc(NC(=O)N(C)C[C@H]2Oc3ccc(NC(=O)Nc4ccccc4)cc3C(=O)N([C@H](C)CO)C[C@@H]2C)cc1	0.0	0.292	-18.9	-0.1
CC(=O)NC(C(=O)O[C@H]1CCC(C)(C)[C@@H]2CC=C3C(=O)OCC3(O)[C@@]12C)C(C)C (some centres not stated)	15.3	-0.758	19.2	0.5
COc1ccc(NC(=O)N(C)C[C@@H]2Oc3ccc(NC(=O)CCCCCC(=O)Nc4ccccc4N)cc3C(=O)N([C@H](C)CO)C[C@@H]2C)cc1	-3.5	-0.098	x	0.6
COc1ccc(NC(=O)N(C)C[C@@H]2Oc3c(cccc3N(C)C)C(=O)N([C@H](C)CO)C[C@@H]2C)cc1	-9.7	0.696	6.0	-0.8
Cc1ccc(NC(=O)COc2ccc(C(C)(C)C)cc2Br)c([N+](=O)[O-])c1	-15.6	x	x	1.8
Cc1ccc(S(=O)(=O)N(C)C[C@H]2Oc3ccc(NC(=O)Cc4cn(C)c5ccccc45)cc3CC(=O)N([C@@H](C)CO)C[C@H]2C)cc1	31.0	-0.222	x	-0.5
C/C=C(/C(=C/C)c1ccc(O)cc1)c1ccc(O)cc1	17.1	0.0281	-13.7	x
C[C@H]1CN([C@@H](C)CO)C(=O)c2cc(NS(C)(=O)=O)ccc2O[C@H]1CN(C)S(C)(=O)=O	-10.1	-0.457	x	-3.1
C[C@@H]1CN([C@H](C)CO)C(=O)c2cc(NC(=O)C3CC3)ccc2O[C@H]1CN(C)Cc1ccc(C(=O)O)cc1	5.5	0.106	-22.8	0.1
Cc1noc(C)c1S(=O)(=O)Nc1ccc2c(c1)C(=O)N([C@H](C)CO)C[C@H](C)[C@@H](CN(C)C(=O)c1ccccc1)OCCCC[C@@H](C)O2	-16.4	-0.279	-20.9	-0.4
C[C@H]1CN([C@@H](C)CO)C(=O)c2cc(NC(=O)Nc3ccccc3)ccc2O[C@H]1CN(C)S(=O)(=O)c1cn(C)cn1	-8.1	0.099	14.8	-0.2
COc1ccc(S(=O)(=O)N(C)C[C@H]2Oc3ccc(NS(=O)(=O)c4ccc(Cl)cc4)cc3C(=O)N([C@H](C)CO)C[C@@H]2C)cc1	7.6	-0.689	u	-1.4
CCc1ccc(N2NC(=O)C(=C(C)C)C2=O)cc1	-3.4	0.142	6.1	6.5
CC(C)NC(=O)Nc1ccc2c(c1)C(=O)N([C@@H](C)CO)C[C@H](C)[C@H](CN(C)S(=O)(=O)c1ccc(Cl)cc1)O2	1.1	-0.142	x	-0.5
COc1ccc(OC(=O)CCN2C(=O)C3C4C=CC(C4)C3C2=O)cc1 (configuration not stated)	-28.5	x	x	1.1
CC(=O)OC(C)(C)/C=C/C(=O)[C@](C)(O)[C@H]1C(O)C[C@@]2(C)[C@@H]3CC=C4[C@@H](C=C(O[C@@H]5O[C@H](CO)[C@@H](O)[C@H](O)[C@H]5O)C(=O)C4(C)C)[C@]3(C)C(=O)C[C@]12C (some centres not stated)	-3.0	-0.36	18.6	0.2
C[C@H](CO)N1C[C@H](C)[C@H](CN(C)S(=O)(=O)c2ccccc2)Oc2ccc(NS(C)(=O)=O)cc2CC1=O	3.7	0.076	-6.0	1.7
CC(C)NC(=O)N(C)C[C@@H]1Oc2c(NC(=O)c3nc4ccccc4s3)cccc2C(=O)N([C@@H](C)CO)C[C@@H]1C	-19.9	0.283	7.3	-0.5
C[C@@H]1CN([C@H](C)CO)C(=O)Cc2cc(NS(C)(=O)=O)ccc2O[C@H]1CN(C)C(=O)Nc1ccc(F)cc1	1.0	-0.139	-9.5	0.2
COc1ccccc1N1C(=O)CC(SCC(=O)Nc2ccc(F)cc2)C1=O (configuration not stated)	2.1	x	x	-2.8
C[C@H](CO)N1C[C@H](C)[C@H](CN(C)C(=O)Nc2ccc(F)cc2)Oc2ccc(NS(=O)(=O)c3ccccc3)cc2CC1=O	-16.9	-0.201	-0.4	0.8
Later entries:
SMILES	MITF inhib	YB-1 expr inh	Shh pathway inh	PD-1 reverse act
Cc1cc(C)c(C)c(S(=O)(=O)N2CCN(c3ncnc4sc5c(c34)CCCC5)CC2)c1C	11.3	0.204	-12.5	-0.1
COc1cc(CCc2ccc3c(c2)OCO3)oc(=O)c1	-9.8	-0.311	4.2	0.5
C[C@@H]1CN([C@H](C)CO)C(=O)c2cc(NC(=O)Cc3cn(C)c4ccccc34)ccc2O[C@@H]1CN(C)CC1CCCCC1	7.7	0.0925	-4.1	-1.5
C[C@@H]1CN([C@@H](C)CO)C(=O)c2cc(NS(=O)(=O)c3ccccc3)ccc2O[C@H]1CN(C)Cc1ccc(-c2ccccc2)cc1	23.1	-0.183	x	0.5
CC(C)(C)n1nc(-c2ccc(Cl)cc2)c2c(N)ncnc21	-7.9	0.309	-1.9	-1.2
C[C@H](CO)N1C[C@H](C)[C@@H](CN(C)S(C)(=O)=O)Oc2c(NC(=O)Nc3ccc(C(F)(F)F)cc3)cccc2C1=O	-35.7	-0.267	-2.2	-2.4
COc1ccc(NC(=O)N(C)C[C@H]2Oc3c(NC(=O)CCCCCC(=O)Nc4ccccc4N)cccc3C(=O)N([C@H](C)CO)C[C@@H]2C)cc1	-23.1	-0.798	x	-0.3
CCN(CC)S(=O)(=O)c1ccc(C(=O)Nc2ccc3c(c2)OC(C)(C)O3)cc1	53.0	-0.106	28.1	-8.2
N#Cc1cc2c(nc1SCC(=O)Nc1cccc(F)c1)CCCCC2	-21.0	x	x	-2.7
C[C@H](CO)N1C[C@H](C)[C@H](CN(C)S(=O)(=O)c2ccc(F)cc2)Oc2c(NC(=O)Nc3ccc(C(F)(F)F)cc3)cccc2C1=O	-7.3	-0.167	-2.4	0.4
CCOc1ccccc1NC(=O)C(C)N1c2cccc3cccc(c23)S1(=O)=O (configuration not stated)	9.0	x	x	-2.4
C[C@@H]1CN([C@H](C)CO)C(=O)c2cc(NC(=O)CCC(F)(F)F)ccc2O[C@H]1CN(C)S(=O)(=O)c1ccc(F)cc1	-15.9	-0.0575	x	-0.1
C=CCn1nc2n(c1=O)-c1ccccc1SC2	-16.9	-0.245	-7.2	0.2
Cc1ccc(S(=O)(=O)N(C)C[C@H]2Oc3ccc(NC(=O)Cn4cnnn4)cc3C(=O)N([C@@H](C)CO)C[C@H]2C)cc1	3.8	-0.348	x	x
C[C@@H]1CN([C@H](C)CO)C(=O)Cc2cc(NC(=O)Nc3ccccc3)ccc2O[C@H]1CN(C)C(=O)Nc1ccc(F)cc1	-13.6	-0.0191	x	-1.6
COc1ccc(NC(=O)Nc2cccc3c2O[C@@H](CN(C)C(=O)Nc2c(C)noc2C)[C@@H](C)CN([C@@H](C)CO)C3=O)cc1	4.3	-0.0304	-5.1	0.8
COc1ccc(NC(=O)N(C)C[C@H]2Oc3ccc(NS(=O)(=O)c4c(C)noc4C)cc3C(=O)N([C@@H](C)CO)C[C@H]2C)cc1	2.6	-0.0057	-19.0	-2.3
COc1ccc(OC)c(NC(=O)COc2ccc3c(=O)c(Oc4ccccc4Br)coc3c2)c1	94.7*	x	x	-4.5
Cc1ncc([N+](=O)[O-])n1CC(=O)Nc1ccc(F)c(Cl)c1	-23.5	x	x	1.4
C[C@H](CO)N1C[C@H](C)[C@H](CN(C)C(=O)Nc2ccc(F)cc2)Oc2ccc(NC(=O)C3CC3)cc2CC1=O	-11.4	0.118	-17.8	1.6

Some values from the list:
Shh pathway inh result of C[C@H]1CN([C@@H](C)CO)C(=O)Cc2cc(NC(=O)Nc3ccc(F)cc3)ccc2O[C@H]1CN(C)C(=O)Nc1ccc2c(c1)OCO2 reads -44.5
MITF inhib result of Cc1ccc(NC(=O)COc2ccc(C(C)(C)C)cc2Br)c([N+](=O)[O-])c1 reads -15.6

This is a subset; count on the stated rates, not on these rows.
